Assay outcomes as filed in PubChem.
YopH PTP inh: inhibitors of Yersinia enterocolitica YopH tyrosine phosphatase. fluorescence Ex485/Em525. 140,000 compounds, 0.16% hits. inhibition, %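 (about 10 µM by stock and volumes)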;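 active = inhibition of 50% or more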;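 also: controls were vehicle for no effect and minimum signal wells for full effect; inactives centre near -20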
Mtb H37Rv: M. tuberculosis H37Rv growth inhibitors, H37Rv strain (AID 1626). M. tuberculosis H37Rv growth inhibition; higher % means a stronger effect. one-dose inhibition, % at 10 µM; IC50 in µM for titrated hits. 220,000 compounds, 0.95% hits;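 active = confirmed in a dose series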;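 also: bacteria incubated seven days before Alamar blue readout; 0% = bacteria only wells and 100% = bacteria with antibiotic wells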
Arbovirus inh: antivirals against arbovirus infection; arbovirus infection cell-based antiviral screen; 200,000 compounds, 0.37% hits; inhibition, % at 10 µM;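 active = inhibition from about 30%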;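 also: bluetongue infection of BSR cells; cell survival read as ATP light after 72 h; 0% = infected wells without compound and 100% = uninfected wells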
Mtb betalactam: beta-lactam sensitization of Mtb H37Rv; M. tuberculosis H37Rv growth with meropenem, percent inhibition; hits of this screen are not shown here; inhibition, % at 25 µM; 330,000 compounds, 0.27% hits;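 active = about 74% or more and at least 40 points above the plate without the antibiotic, then above 30% in a dose series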;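 also: growth measured after seven days incubation then overnight dye step; 0% = bacteria only wells and 100% = bacteria with antibiotic; twin plates without the antibiotic show which effects depend on it; some results filed as inactive read as strong as hits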
RecA splice inh: inhibitors of M. tuberculosis RecA intein splicing; cell-free RecA intein splicing, fluorescence; inhibition, %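 (about 9 µM by stock and volumes)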; 290,000 compounds, 0.75% hits; in the data active = inhibition above about 30%;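 also: 0% = vehicle wells and 100% = reference inhibitor control wells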
Target sequence (P9WHJ3 whole entry, looked up, canonical isoform): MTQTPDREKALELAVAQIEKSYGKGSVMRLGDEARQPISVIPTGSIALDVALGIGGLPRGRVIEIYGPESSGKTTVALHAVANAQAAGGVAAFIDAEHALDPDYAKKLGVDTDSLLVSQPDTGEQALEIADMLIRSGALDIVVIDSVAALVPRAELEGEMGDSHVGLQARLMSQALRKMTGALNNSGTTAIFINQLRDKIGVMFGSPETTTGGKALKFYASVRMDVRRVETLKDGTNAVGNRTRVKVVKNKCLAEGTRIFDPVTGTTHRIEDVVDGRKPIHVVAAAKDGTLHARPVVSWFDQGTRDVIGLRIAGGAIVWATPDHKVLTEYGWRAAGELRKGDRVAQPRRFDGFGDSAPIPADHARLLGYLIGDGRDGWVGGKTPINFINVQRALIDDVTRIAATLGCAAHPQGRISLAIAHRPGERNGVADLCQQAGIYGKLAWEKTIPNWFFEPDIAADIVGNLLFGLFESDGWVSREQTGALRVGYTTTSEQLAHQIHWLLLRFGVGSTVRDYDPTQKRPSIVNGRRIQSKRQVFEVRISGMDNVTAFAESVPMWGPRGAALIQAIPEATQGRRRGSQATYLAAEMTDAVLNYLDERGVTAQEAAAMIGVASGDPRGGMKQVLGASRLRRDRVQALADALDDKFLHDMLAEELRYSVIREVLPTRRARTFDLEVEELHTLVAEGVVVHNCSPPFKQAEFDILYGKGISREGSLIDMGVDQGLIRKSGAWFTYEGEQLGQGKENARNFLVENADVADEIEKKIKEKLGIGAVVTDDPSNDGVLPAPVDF
Arbovirus inh repeat: recorded beside Arbovirus inh, whose call it bears; inhibition, %; measured here: 10K subset replicate screen; many hits read low in the repeat;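 first of two repeat runs on a subset; 0% = infected and 100% = uninfected wells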
An asterisk follows results filed as active; . = no result given; & = joins results of further samples.

SMILES	YopH PTP inh	Mtb H37Rv	Arbovirus inh	Mtb betalactam	RecA splice inh	others
O=C(CSc1n[nH]c(=O)[nH]c1=O)c1cccc([N+](=O)[O-])c1	.	-4%	25	-9	-0.9
Cc1ccc(S(=O)(=O)N(CC(=O)NCCSC2CCCCC2)c2ccccc2F)cc1	-22	-3%	-2	1	2.1
O=C(c1ccc(Cn2cnnn2)cc1)N1CCCC(Nc2ccc(F)cc2)C1 (configuration not stated)	.	.	.	-3	-3.7
Cc1ccc2cc(/C=N/Nc3ccc(C(=O)O)cc3)c(Cl)nc2c1	.	10%	.	11	-15
CCOC(=O)c1cn(C2CC2)c2c(F)c(NCCCN(C)C)c(F)cc2c1=O	.	.	.	-9	1.7
CCCCCSc1nc(N2CCOCC2)c2c(c1C#N)CC(C)(C)OC2	-28	-4%	14	-11	0.7
CC(=O)c1cn(CC(=O)Nc2c(C)cccc2C)c2ccccc12	5	1%	4	-3	3.0
Cn1c(C2CC(=O)N(Cc3ccccc3)C2)nc2ccccc21 (configuration not stated)	-26	-1%	2	-3	1.7
C=CCN(CC=C)C(=O)c1ccc2nc(Cc3ccc(OC)c(OC)c3)oc2c1	.	.	.	5	-1.9
COc1ccc(CCN(C(=O)c2cccc(F)c2)C2CC(=O)N(c3ccc(OC)cc3)C2=O)cc1 (configuration not stated)	-31	2%	4	-2	2.2
Cc1ccc(-n2nnc3c(=O)n(CC(=O)N4CCC(C)CC4)cnc32)cc1	-25	4%	2	-10	2.5
CCOc1ccc(C2/C(=C(/O)c3ccc4c(c3)CC(C)O4)C(=O)C(=O)N2CCCn2ccnc2)cc1 (configuration not stated)	.	.	.	-3	4.1
CCCC(C)c1nnc(NC(=O)C(=O)OCC)s1 (configuration not stated)	.	4%	8	8	-0.9
COc1cc(OC)cc(C(=O)N2CCN(Cc3ccccc3C(F)(F)F)CC2)c1	-17	0%	0	10	4.6
CC(C)(C)NC(=O)COc1ccccc1C#N	.	1%	7	-9	-4.7
CN(C)/C=N/c1cc(=O)[nH]c(=O)n1CC1CC1	-36	-14%	-2	-4	-1.9
Cc1cc(C)cc(OCC(=O)N2CCc3ccccc3C2)c1	.	.	.	-4	5.7
CCOc1nnc(C)c2c(C)n(-c3ccc(Cl)cc3)nc12	-29	-9%	4	8	-1.0
S=c1[nH]nc(-c2ccncc2)n1CC1CCCO1 (configuration not stated)	-19	-8%	5	3	-3.0
CCNC(=O)N1CCNC(=O)C1CC(=O)Nc1ccc(C(=O)OCC)cc1 (configuration not stated)	-9	-6%	0	7	-1.9
COc1ccccc1N1CCN(Cc2ccco2)CC1	-27	-3%	-3	-4	-3.4
Cc1ccc(N2CC(C(=O)N/N=C/c3sccc3C)CC2=O)cc1 (configuration not stated)	-20	4%	-12	-3	5.5
CC(C)(C)c1ccc(OC(=O)CN2C(=O)C3C4CCC(C4)C3C2=O)cc1 (configuration not stated)	-22	4%	3	-2	-2.2
CCCOC(=O)CCCCCCCCC(O)CN1CCCCC1 (configuration not stated)	.	0%	12	2	-1.4
Cc1[nH]c2ccccc2c1CCC(N)=O	-2	-2%	3	-9	1.6	Arbovirus inh repeat=1

Structural class, the compounds so far containing an NH in an aromatic ring
SMILES	YopH PTP inh	Mtb H37Rv	Arbovirus inh	Mtb betalactam	RecA splice inh	others
O=C(CSc1n[nH]c(=O)[nH]c1=O)c1cccc([N+](=O)[O-])c1	.	-4%	25	-9	-0.9
CN(C)/C=N/c1cc(=O)[nH]c(=O)n1CC1CC1	-36	-14%	-2	-4	-1.9
S=c1[nH]nc(-c2ccncc2)n1CC1CCCO1 (configuration not stated)	-19	-8%	5	3	-3.0
Cc1[nH]c2ccccc2c1CCC(N)=O	-2	-2%	3	-9	1.6	Arbovirus inh repeat=1

Next section:
SMILES	YopH PTP inh	Mtb H37Rv	Arbovirus inh	Mtb betalactam	RecA splice inh	others
COCCNC(=O)c1c(C)cc(C)cc1C	.	5%	7	-2	-1.5
CCCCOc1ccc(CSc2nncn2N)cc1	1	4%	-6	5	0.1
Cc1ccc(N(C)C(=O)c2cnn(-c3ccccc3)c2C)c(C)c1	.	.	.	-1	0.5
CC(C)C(=O)n1nc(-c2cccnc2)nc1NCc1ccc(F)cc1	.	18%	-4	-4	7.0
COc1cc(C(C)=O)ccc1Oc1cc(NN2CCCCC2)c([N+](=O)[O-])cc1[N+](=O)[O-]	.	.	.	-10	7.0
COc1cccc(-c2nnc3sc(-c4cccs4)nn23)c1	-41	-3%	6	0	.
O=C(Nc1sc2c(c1C(=O)O)CCC2)c1ccco1	-61	-2%	10	15	4.0
Cc1ccnc(NC(=O)c2ccc(Br)s2)c1	.	.	.	91	-4.9
O=C1CC(c2ccc(F)cc2)CC(O)=C1C=NCCN1CCN(C(=O)Nc2ccccc2)CC1 (configuration not stated)	-31	-6%	1	2	-0.2
Cn1cc(Br)c(C(=O)N/N=C/c2cc3ccccc3nc2Cl)n1	.	.	.	3	0.0
Cc1nn(Cc2c(Cl)cccc2Cl)c(C)c1C(=O)NCc1ccc(C)n1C	-14	-6%	15	8	4.2
O=C(N/N=C/c1ccccn1)c1cc(-c2ccccc2)nc2ccccc12	.	11%	.	48	4.6
CC1CCN(C(=O)c2ccc(Br)c(S(=O)(=O)N3CCOCC3)c2)CC1	.	.	.	-3	0.8
CCOC(=O)/C=C/S(=O)(=O)c1ccc(NC(C)=O)cc1	10	1%	0	1	-1.0	Arbovirus inh repeat=-6
CCOC(=O)C1(Cc2ccccc2C(F)(F)F)CCN(C(C)COC)CC1 (configuration not stated)	.	2%	4	11	-1.0
COc1cc(NC(=O)CSCC(=O)Nc2cc(OC)cc(OC)c2)cc(OC)c1	.	7%	.	11	-1.5
NS(=O)(=O)c1ccc(CNC(=O)Cc2ccc(S(=O)(=O)N3CCOCC3)s2)cc1	.	.	.	-18	1.2
Cc1ccc(Cl)cc1N1CCN(C(=O)CCCn2c(=O)c3cccn3c3cccnc32)CC1	.	.	.	30	17
Cc1ccc(NC(=O)NN(C)c2c(Cl)c(Cl)nn2C)cc1	.	18%	10	-6	-2.1
CS(=O)(=O)N(CC(=O)N1CCOCC1)c1ccccc1	.	.	.	-1	-0.6
O=C(CCS(=O)(=O)c1ccc(Cl)cc1)Nc1nnc(-c2ccco2)o1	.	.	.	52	-0.2
CCOc1cc(/C=C2\NC(=S)N(C)C2=O)ccc1OCc1ccc(C(=O)O)cc1	.	.	.	7	-0.6
Cc1cccc(N2CCN(C(=O)CCc3nc4ccccc4[nH]3)CC2C)c1 (configuration not stated)	-49	6%	22	2	0.2
Cc1cc(Br)ccc1NC(=O)CCSc1ccccc1	-17	-2%	3	7	-4.3
Cc1cc(=O)oc(C)c1C(=O)OCC(=O)c1ccc(Cl)cc1	-12	-2%	9	-4	6.6

Compounds listed so far that contain a thiophene ring, fused or not, in the order listed:
SMILES	YopH PTP inh	Mtb H37Rv	Arbovirus inh	Mtb betalactam	RecA splice inh	others
Cc1ccc(N2CC(C(=O)N/N=C/c3sccc3C)CC2=O)cc1 (configuration not stated)	-20	4%	-12	-3	5.5
COc1cccc(-c2nnc3sc(-c4cccs4)nn23)c1	-41	-3%	6	0	.
O=C(Nc1sc2c(c1C(=O)O)CCC2)c1ccco1	-61	-2%	10	15	4.0
Cc1ccnc(NC(=O)c2ccc(Br)s2)c1	.	.	.	91	-4.9
NS(=O)(=O)c1ccc(CNC(=O)Cc2ccc(S(=O)(=O)N3CCOCC3)s2)cc1	.	.	.	-18	1.2

(list continues)
SMILES	YopH PTP inh	Mtb H37Rv	Arbovirus inh	Mtb betalactam	RecA splice inh	others
COc1ccc(N2CCOCC2)c(NC(=O)c2cccc3ccccc23)c1	.	.	.	3	7.4
Cc1cccc(NC(=O)c2ccc(-n3ccnc3)nc2)c1	-46	-5%	0	1	6.4
S=c1[nH]c2cc3ccccc3cc2[nH]1	.	73%&74%	.	87	0.3
O=C(c1ccccc1[N+](=O)[O-])N1CCc2ccccc2C1	-19	6%	3	1	-1.9
O=c1[nH]c2ccc(NC(=S)NCc3ccccc3)cc2[nH]1	.	-2%	.	-4	3.1
CN(CC(=O)Nc1ccccc1C(F)(F)F)C(=O)c1cccc(-n2cccc2)c1	.	.	.	-7	1.3
Cc1ccc2c(c1)nc(NCCO)n2C	-57	-10%	11	-6	-1.0
Cc1cc(=O)oc(C)c1C(=O)Nc1ccc(F)cc1	.	1%	.	3	-0.9
CCn1cnc2c1c(=O)n(CC(=O)Nc1cc(C)on1)c(=O)n2Cc1ccccc1	-14	-3%	-2	4	-0.7
CN1C(=O)CS(=O)c2ccc(C(=O)NCCC3=CCCCC3)cc21 (configuration not stated)	-30	0%	-1	2	0.7	Arbovirus inh repeat=7
COc1ccc(N2C(=O)C3CC(C)=C(C)CC3C2=O)c(OC)c1 (configuration not stated)	-20	-5%	-9	10	4.7
Cc1ccc2c(c1)C(=O)CC1(CCCCCC1)O2	.	-4%	.	0	-1.6
CC(=O)Nc1ccc(S(=O)(=O)Nc2ccc(-c3ccc4nnc(C)n4n3)cc2)cc1	.	10%	-1	5	-4.4
Cc1cc(C)c2c3c(cn2n1)c(=O)n(C)c(=O)n3C	-9	4%	.	-8	-8.3
COc1ccc2[nH]c(C)c(CCNC(=S)Nc3ccccc3OC)c2c1	.	-4%	16	-5	-3.0
CCOC(=O)CCCCC(=O)c1[nH]c(=O)[nH]c1CSc1nc(C)cc(C)n1	-32	-10%	-3	1	0.3
CCOC(=O)c1nn(-c2ccc(Cl)cc2)c2nnc(Cc3ccc(C)cc3)c(=O)n12	-35	9%	5	3	-3.1
CCC(C)NC(=O)Nc1ccc2c(c1)N(C)C(=O)c1ccccc1S2 (configuration not stated)	-3	0%	-7	-2	0.4
CNC(=S)N=Nc1c(O)[nH]c2ccccc12	-40	2%	3	-4	4.6
CNc1cc([N+](=O)[O-])ccc1OCc1ccccc1	.	.	.	-7	8.0
Cc1[nH]ncc1N=Cc1ccc([N+](=O)[O-])cc1	-39	-3%	-10	4	-5.8
COc1ccccc1-c1nnc(SCC(=O)NCc2c(C)c(Cl)cc(C(C)C)c2O)o1	-28	.	-46	2	.

Molecules above that have bromine:
SMILES	YopH PTP inh	Mtb H37Rv	Arbovirus inh	Mtb betalactam	RecA splice inh	others
Cc1ccnc(NC(=O)c2ccc(Br)s2)c1	.	.	.	91	-4.9
Cn1cc(Br)c(C(=O)N/N=C/c2cc3ccccc3nc2Cl)n1	.	.	.	3	0.0
CC1CCN(C(=O)c2ccc(Br)c(S(=O)(=O)N3CCOCC3)c2)CC1	.	.	.	-3	0.8
Cc1cc(Br)ccc1NC(=O)CCSc1ccccc1	-17	-2%	3	7	-4.3

Looked up by compound from the list above:
SMILES	YopH PTP inh	Mtb H37Rv	Arbovirus inh	Mtb betalactam	RecA splice inh	others
CCn1cnc2c1c(=O)n(CC(=O)Nc1cc(C)on1)c(=O)n2Cc1ccccc1	-14	-3%	-2	4	-0.7
CN(CC(=O)Nc1ccccc1C(F)(F)F)C(=O)c1cccc(-n2cccc2)c1	.	.	.	-7	1.3

Some of the compounds tested; the hit share may differ from the screen's.
